Vaccinia Venus: vaccinia inhibition (Venus reporter). Vaccinia virus Venus reporter expression, fluorescence. Potency, µM (doses to about 36.5 µM), inactives show at the highest dose activity change, negative = inhibition, usual class: inhibitors. 330,000 compounds, 0.46% hits; active means well fitted inhibition curve with a large enough effect; inconclusive means small, poorly fitted or top-dose-only effect; inactive means no such curve, though single readings can be large or run the other way; tested in A549 cells; note: nearly all actives have a fitted effect of over 30% in size; inactives centre near -10
Vaccinia mCherry: vaccinia inhibition (mCherry reporter); Vaccinia virus mCherry reporter infection, fluorescence; about a quarter of the inactives have no number; Potency, µM (titrated, usually from 36.5 µM), without a hit: top-dose activity change, negative = inhibition, most hits filed as inhibitors; 310,000 compounds, 0.63% hits; active = well fitted inhibition curve with a large enough effect; inconclusive = small, poorly fitted or top-dose-only effect; inactive = no such curve, though single readings can be large or run the other way; tested in A549 cells; note: nearly all actives have a fitted effect of over 35% in size; inactives centre near -10
* = called active by the depositor; i = inactive; ? = inconclusive; nt = not tested or not shown; & = joins results of further samples; [ ] = another dose, or the depositor's remark. % is set by controls: 0 for no effect and ±100 for the full control effect; potency is the fitted concentration of half-maximal effect.

Value order: Vaccinia Venus | Vaccinia mCherry
> CN(C)/C=N/c1cc(=O)n(C)c(=O)n1CC1CC1
 : -18% | -2%
> COc1ccc(CN(CCCN)c2ccc(Br)cn2)cc1
 : -20% | -24%
> COc1ccc(C(C(=O)NC2CCCC2)n2c(C3CCN(C(C)=O)CC3)nc3ccccc32)cc1 (stereo not given)
 : -21% | 0%
> CCCCc1cc(=O)oc2cc(OCC(=O)NCc3ccccn3)c(Cl)cc12
 : 0%[7.34 µM] | i[7.34 µM]
> CCOC(=O)c1ccc(NC(=O)c2c(NC(=O)CCC(=O)O)sc3c2CCCCC3)cc1
 : 2% | -7%
> COc1cccc(C2=Nc3cccc4cccc(c34)N2)c1
 : 0% | -9%
> O=C(Nc1ccccc1)N(CCN1CCOCC1)Cc1cccc(Cl)c1
 : 5% | -8%
> CCOC(=O)c1c(C)[nH]c(C)c1S(=O)(=O)N1CCC(C(=O)Nc2ccccc2CC)CC1
 : -2% | -11%
> O=C(C1CCN(S(=O)(=O)Cc2ccccc2)CC1)N1CCN(c2ncccn2)CC1
 : -9% | -14%
> COc1ccc(N2C(=O)CN(Cc3cc(OC)c(OC)c(OC)c3)C2=S)cc1
 : -19% | -5%
> CCOC(=O)c1c(NC(=O)COc2ccc(Br)cc2)sc(C(C)=O)c1C
 : -17% | -16%
> COc1ccc(Cn2nnnc2CN(Cc2cc3ccc(C)cc3[nH]c2=O)C2CCCC2)cc1
 : ? | -13%
> O=C(NC1CCCCC1)C(c1cccs1)N(Cc1cccs1)C(=O)c1ccco1 (stereo not given)
 : -3% | -16%
> O=C(NCCOc1ccccc1F)C1CC(=O)N(Cc2ccccc2)C1 (stereo not given)
 : -1% | -8%
> O=c1cc(N2CCCCC2)c(-c2ccccc2)nn1Cc1ccccc1Cl
 : ? | nt
> O=C(O)c1nc2nc(Cl)c(Cl)nc2[nH]1
 : -14% | i
> O=C(CSc1n[nH]c(=O)[nH]c1=O)c1ccccc1[N+](=O)[O-]
 : 4% | ?
> CCOC(=O)c1c(CS(=O)(=O)c2ccccc2)n(C)c2cc(Br)c(O)c(CN(C)C)c12
 : -13% | -23%
> Nc1nc2c3ccccc3nc(Cc3ccccc3)n2n1
 : -14% | i
> CCc1ccc(-n2c(=O)c3sc4ccccc4c3n(CC(=O)NC3CCCCC3)c2=O)cc1
 : -2% | -1%
> Cc1cccc(C)c1NC(=O)C1(C)CSCC(=O)N1Cc1cccc(C(F)(F)F)c1 (stereo not given)
 : -10% | -16%
> Cc1ccc(-c2nc3ccccn3c2Nc2ccc3c(c2)OCCO3)s1
 : ? | ?
> CN(C)c1ccc(-c2ccnc3c2CC(C)(C(=O)NCCc2ccccc2)O3)cc1 (stereo not given)
 : 0% | 2%
> CCN=C(Nc1ccc2c(c1)OCO2)SC1CC(=O)N(c2ccc(OC)cc2)C1=O (stereo not given)
 : -10% | -16%
> Fc1cccc(CN2CCc3nc(Nc4ccc5c(c4)OCCO5)ncc3C2)c1F
 : -10% | -16%
> COc1ccc(C(=O)/C=C/C(=O)N(CC(=O)NC2CCCCC2)Cc2ccccc2OC)c(O)c1
 : -24% | ?
> Cc1occc1-c1nc(-c2ccncc2)no1
 : -10% | -18%
> Cc1ccc(CN2CCN(Cc3cnc(C)s3)CC2CCO)cc1 (stereo not given)
 : -2% | -1%
> CCCN(CCC)c1nc2c(C)cccn2c(=O)c1/C=C1/SC(=S)N(Cc2ccco2)C1=O
 : 222%[activator] | -13%
> C=CCn1c(SCC(=O)NC2CCCCC2)nnc1-c1cccnc1
 : -12% | -2%
> CCn1cc(C(=O)OCC(=O)c2cc(C)n(-c3ccccc3)c2C)c(=O)c2ccc(C)nc21
 : -7% | -12%
> CCCCn1c(SCC(=O)NCCCOC)nc2c(sc3ccccc32)c1=O
 : -15% | -5%
> Cc1ccc2scc(N3CCN(c4cccc(C(F)(F)F)c4)CC3)c(=O)c2c1
 : -8% | -9%
> Cc1c(C(=O)Nc2c(C)n(C)n(-c3ccccc3)c2=O)oc2ccc(Cl)cc12
 : -21% | -27%
> CCc1ccccc1NC(=O)CSc1nc2c(oc3ccccc32)c(=O)n1C
 : -2% | 5%
> O=C(CCS(=O)(=O)c1cccc2nonc12)Nc1ccc(Br)cc1
 : -17%&-15% | ?
> COc1ccc(NS(=O)(=O)c2cc(NC(=O)c3cncc(Br)c3)ccc2OC)cc1
 : -15% | -24%
> CCC[N+]1(CC#CC(O)(c2ccccc2)C2CCCCC2)CCCCC1 (stereo not given)
 : -7% | -4%
> Cc1c(C(=O)OCCOc2ccccc2)[nH]c2c1C(=O)CC(c1ccccc1Cl)C2 (stereo not given)
 : -29%[7.34 µM] | ?
> COC(=O)C[C@@H]1C[C@H]2c3cc(N(C)C)ccc3O[C@H]2[C@H](CO)O1
 : -1% | -10%
> CC1CN(C(=O)c2nn(C)cc2[N+](=O)[O-])CC(C)O1 (stereo not given)
 : -11% | -15%
> Cc1cc(C)c(C)c(OCC(=O)NCCN(C)C)c1
 : -19% | nt
> COCC(=O)N1C[C@@H](C)[C@@H](OC)CN(C)C(=O)c2ccc(NC(=O)c3cnccn3)cc2OC[C@H]1C
 : -10% | -14%
> CCc1ccc(OCCCSc2nc(-c3ccc(C(C)(C)C)cc3)nc3cc(=O)[nH]n23)cc1
 : -17% | -6%
> CC(=O)Oc1cc(OC(C)=O)c2c(C)cc(=O)oc2c1
 : -11% | -22%
> CC(=O)c1ccc(N2CCN(S(=O)(=O)c3c(C)[nH]c(C)c3C(=O)N3CCCCC3)CC2)cc1
 : 1% | -4%
> CCN(Cc1ccccc1)c1ccc(/C=N/NC(=S)NC(C)C)cc1
 : -12% | -27%
> C=CCSc1nnc(NC(=O)Cc2ccc(OC)c(OC)c2)s1
 : -3% | 6%
> CCOC(=O)c1[nH]c(C)c(/C(O)=C2\C(=O)C(=O)N(CCCN(C)C)C2c2cccnc2)c1C (stereo not given)
 : -4% | nt
> O=c1[nH]c(=S)n2c(c1-c1ccccc1)OC(CBr)C2 (stereo not given)
 : -9% | -20%
> Nc1nn2c(-c3ccccc3)cc(=O)[nH]c2c1N=Nc1ccc(Br)cc1
 : ? | 16µM*
> COc1ccccc1CN1C[C@@H]2C[C@@H](C3=Cc4cccc(OC)c4OC3)N3CCC[C@@]23C1=O
 : -11% | -16%
> COc1cc(F)c(C2=CC(=O)C[C@H](c3ccc(F)cc3)C2)cc1F
 : -14% | i
> COc1ccc(-n2c(SCC(=O)Nc3cc(C)on3)nc3c(c2=O)SCC3)cc1OC
 : -18% | -14%
> COc1cc(OC)cc(C(=O)N[C@H](C(=O)N2CCc3ccccc32)C(C)C)c1
 : -17% | -26%
> CCC1(c2ccc(F)cc2)NC(=O)N(CC(=O)N(C)C2CCS(=O)(=O)C2)C1=O (stereo not given)
 : -6% | i
> COc1ccc(NC(=O)Nc2ccc3c(c2)C(=O)N([C@H](C)CO)C[C@H](C)[C@@H](CN(C)S(=O)(=O)c2ccc(OC)cc2)O3)cc1
 : -15% | -10%
> N=c1c2c(n(Cc3cccc(Cl)c3)c3c1CCC3)CCCC2
 : ? | -21%
> CC(=O)c1cccc(NC(=O)COC(=O)c2ccc3c(c2)OCCO3)c1
 : -19% | -5%
> CCCN1CCN(C(=O)Cn2ncc3ccccc32)CC1
 : 2% | 17%

Complete entries from above. Order of screens: Vaccinia Venus | Vaccinia mCherry
COc1ccccc1CN1C[C@@H]2C[C@@H](C3=Cc4cccc(OC)c4OC3)N3CCC[C@@]23C1=O across the screens: -11% | -16%
CCc1ccc(OCCCSc2nc(-c3ccc(C(C)(C)C)cc3)nc3cc(=O)[nH]n23)cc1 across the screens: -17% | -6%
CC1CN(C(=O)c2nn(C)cc2[N+](=O)[O-])CC(C)O1 (stereo not given) across the screens: -11% | -15%

Further records.
mol	Vaccinia Venus	Vaccinia mCherry
O=C(O)c1cc(-c2cccc([N+](=O)[O-])c2)nc2ccccc12	-7%	i
CN1C(=O)N(C)C2(c3ccccc3)Nn3c(s/c(=C/c4ccccc4)c3=O)=NC12c1ccccc1 (stereo not given)	-6%	nt
COc1ccc(CN2CCN(Cc3ccco3)CC2)cc1	-29%	-20%
COc1ccc(/C=C/C(=O)OCC(=O)NCCc2ccccc2)c(OC)c1	-3%	i
CCN(CC)C(=O)CC(c1ccc(OC)cc1)c1c(O)cc(OC)cc1OC (stereo not given)	-10%	i
Cc1ccccc1CN1CCN(C(=O)[C@H]2O[C@@H](n3cnc4c(N)ncnc43)[C@H](O)[C@@H]2O)CC1	-3%	6%
Cc1ccccc1C(=O)NCCN=C1NS(=O)(=O)c2ccccc21	-10%	-18%
CCCc1cc(NCCCN2CCOCC2)n2c(nc3ccccc32)c1C#N	2%	nt
CCc1sc(C(=O)NCCCN2CCCC2=O)cc1Br	-17%	-1%
Cc1c(NC(=O)CNCc2ccc3c(c2)OCO3)c(=O)n(-c2ccccc2)n1C	2%	-4%
CSc1ccc(C#N)cc1NC(=O)c1cccnc1Cl	-21%	i
Cn1cccc1/C=N/NC(=O)c1ccccn1	0%	-28%
O=C(c1ccccn1)c1cc2ccccc2n1S(=O)(=O)c1ccccc1	-17%	-21%
CC(C)NC(=O)COC(=O)c1cccc(NS(=O)(=O)/C=C/c2ccccc2)c1	-11%	-14%
CCS(=O)(=O)c1ccc(-c2csc(-c3ccccc3Cl)n2)c(Cl)c1Cl	-14%	nt
COC(=O)c1ccc(NS(=O)(=O)c2cc3c4c(c2)C(C)C(=O)N4CCC3)cc1 (stereo not given)	-9%	i
CSc1ncccc1C(=O)OCC(=O)Nc1cccc(S(=O)(=O)N2CCOCC2)c1	-2%	-25%
COc1cc2c(cc1OC)[C@@H](NC(=O)C(C)C)[C@H](O)C2	-4%	i
CSc1nc(Cl)c(C#N)c(-c2ccc(C)cc2)n1	-6%	-14%
CC1=CC(=O)C2=C(C)CC(O)C3C(C)C(=O)OC3C12 (stereo not given)	-6%	nt
COCCNC(=O)C(c1ccc(C)o1)N(Cc1ccc(OC)cc1)C(=O)Cn1nnc2ccccc21 (stereo not given)	8%	-6%
CN(CC(=O)N1CCCC1)S(=O)(=O)c1cccc(Cl)c1	-9%	-13%
O=C(NC(=S)Nc1ccc(CN2CCOCC2)cc1)c1ccc2c(c1)OCCO2	?	?
O=C(NCC1CCCO1)C1CCCN(S(=O)(=O)c2ccc(Cl)cc2)C1 (stereo not given)	-11%	-23%
COc1ccc(CNC(=O)COCc2cc(-c3cccs3)on2)cc1OC	-29%	-11%
COc1ccc(NC(C)=O)cc1NC(=O)c1cccc(C(F)(F)F)c1	1%	-1%
Cc1ccc(C)c(Cn2c(CCCNC(=O)C3CCCCC3)nc3ccccc32)c1	-21%	-24%
COc1ccc(C(=O)Nc2ncc(C)s2)cc1S(=O)(=O)N1CCCC1	-15%	-17%
O=C(c1cncc(Br)c1)N1CCN(S(=O)(=O)c2ccc(Cl)cc2)CC1	-3%	i
CC(=O)NC1=NN(C(C)=O)C2(S1)C(=O)N(C(C)C)c1ccc(C)cc12 (stereo not given)	-15%	-10%
O=C(COc1ccc(Cl)cc1)N(c1ccccc1Cl)C1CN2CCC1CC2 (stereo not given)	-28%	-19%
Cc1cccc(NC(=O)c2ncn3c2C(=O)N[C@@H](C)C3)c1	?	?
Cc1ccc(S(=O)(=O)N2CCC(C(=O)OCC(=O)NCc3ccco3)CC2)cc1C	-5%	i
CC(C)N1C(=O)c2ccccc2NC(=O)C1C(=O)NCc1cccc(C(F)(F)F)c1 (stereo not given)	-3%	14%
CCC(C)C(=O)Nc1c2c(nc3c1CCC3)CCCC2 (stereo not given)	-5%	nt
CN(C)S(=O)(=O)c1cccc(NC(=S)NC(=O)C2CCCCC2)c1	-19%	-25%
COc1ccc(CC(=O)Nc2ccc(-c3noc(-c4cccc(OC)c4)n3)cc2)cc1	-14%	-4%
CCOC(=O)N1CCN(C(=O)Cc2ccc(-n3c(=O)[nH]c4ccccc4c3=O)cc2)CC1	-9%	-4%
COCCN1C(=O)COc2ccccc2C1C(=O)Nc1c(C)cccc1C (stereo not given)	7%	39%[activator]
COc1ccc2nc(SCc3nc(N)nc(Nc4ccccc4)n3)[nH]c2c1	-22%	?
COC(=O)c1ccccc1NC(=S)NC(=O)c1cccc2ccccc12	-8%	-15%
Cn1c(-c2cccc(F)c2)nc2c1c(=O)[nH]c(=O)n2Cc1ccccc1	-12%	?
COc1ccc(-c2cc(C(=O)N3CCOCC3)no2)cc1OC	-7%	i
CCc1cccc(NC(=O)Cn2c(=O)c(C(F)(F)F)nc3ccccc32)c1	-4%	3%
Cc1cccc(NC(=S)N2CCC(c3nc4ccccc4o3)CC2)c1	-22%	?
CCC(=O)c1ccccc1OCCN1CCN(Cc2ccccc2)CC1	-12%	-6%
Cc1ccc(NC(=O)c2cccc(N3C(=O)CCC3=O)c2)nc1	-4%	nt
COc1cc(/C=C(\C#N)c2nc(-c3cc4ccccc4oc3=O)cs2)ccc1O	1%	-13%

Molecules above with a cyano group:
mol	Vaccinia Venus	Vaccinia mCherry
CCCc1cc(NCCCN2CCOCC2)n2c(nc3ccccc32)c1C#N	2%	nt
CSc1ccc(C#N)cc1NC(=O)c1cccnc1Cl	-21%	i
CSc1nc(Cl)c(C#N)c(-c2ccc(C)cc2)n1	-6%	-14%
COc1cc(/C=C(\C#N)c2nc(-c3cc4ccccc4oc3=O)cs2)ccc1O	1%	-13%

Screening data (PubChem BioAssay)
